TRPML1 inh – human mucolipin-1 channel inhibition; Q9GZU1; activity change, negative = inhibition, % (no concentration beside the values); TRPML1-inducible cells, Ca2+ dye fluorescence, FDSS; hits give low values; inhibition of EC80 agonist-evoked calcium signal; AID 624415; actives 0.02% (n = 390,000); in the data active means activity change below about -50%; inconclusive means about -30% to -50%; inactive means above about -30%;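 note: stimulus is agonist 54-4 at its EC80 concentration; % is set by controls: 0 for no effect and ±100 for the full control effect; compound concentration not given in the record; the text of the record puts the active cut at -80%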
Target sequence (Q9GZU1 whole entry, looked up): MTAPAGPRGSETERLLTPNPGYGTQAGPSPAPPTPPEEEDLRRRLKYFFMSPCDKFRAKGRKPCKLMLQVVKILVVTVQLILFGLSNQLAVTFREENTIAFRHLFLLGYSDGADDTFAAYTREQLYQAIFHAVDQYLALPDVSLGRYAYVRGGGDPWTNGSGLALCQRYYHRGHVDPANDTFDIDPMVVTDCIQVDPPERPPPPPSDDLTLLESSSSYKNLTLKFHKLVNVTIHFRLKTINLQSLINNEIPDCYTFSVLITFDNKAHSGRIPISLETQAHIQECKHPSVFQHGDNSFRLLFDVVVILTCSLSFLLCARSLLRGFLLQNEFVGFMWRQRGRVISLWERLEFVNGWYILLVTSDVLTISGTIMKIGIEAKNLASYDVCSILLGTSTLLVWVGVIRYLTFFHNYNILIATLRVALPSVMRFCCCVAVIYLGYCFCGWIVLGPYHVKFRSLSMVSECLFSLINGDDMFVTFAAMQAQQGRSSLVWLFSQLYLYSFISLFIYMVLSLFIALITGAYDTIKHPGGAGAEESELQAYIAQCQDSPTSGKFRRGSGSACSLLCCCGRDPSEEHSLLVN
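Tet-induced TRPML1-DL cells loaded with Ca8 no-wash calcium dye were read kinetically on FDSS. Compound addition was followed by EC80 agonist 54-4 (4 uM final); inhibition was read over 110 s.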
Menin MLL FP FL – inhibitors of human menin-MLL interaction, wild-type MLL peptide; AID 1766; 290,000 tested, under 10 active; Fluorescence polarization, fluorescein-MLL peptide displacement from menin; FP activity change, % at 61.4 µM; inconclusive = falling polarisation curve, or a change in total fluorescence; inactive = total fluorescence flat and polarisation flat or rising; no compound was filed as active; the % refers to the polarisation; negative = inhibition;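 note: % of control where 0% means no effect; inhibitors lower the polarisation; unlabelled MLL peptide was the positive control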
TRPML1 agonist – human mucolipin-1 channel agonism; Q9GZU1; TRPML1-expressing cells, Ca2+ dye fluorescence, FDSS; host cell line not named in the record; reference of the full effect not given here; activation, % (test concentration not listed); actives 0.12% (n = 410,000); in the data active = activation above about 50%; inconclusive = about 30% to 50%; inactive = below about 30%; note: 0% is about no effect; the text of the record puts the active cut at 80%
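TRPML1-DL cells, Tet-induced overnight (~16 h, 37 degrees C), loaded 45-90 min at room temperature with Ca8 no-wash calcium dye plus quencher. FDSS fluorescence: 10 s baseline, compound pin-transfer, 110 s agonist read, then EC80 54-4 (4uM final) and 110 s antagonist read.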
ClpP mod – qHTS Assay for Activators of ClpP; ATP-dependent Clp protease proteolytic subunit (Bacillus subtilis (strain 168)), P80244; Potency, µM (top dose mostly 57.5 µM), for inactives: top-dose activity change, negative = active; purified B. subtilis ClpP, FRET peptide cleavage, 20 min; actives 1.9% (n = 340,000); AID 651965, 2013; active = well fitted falling curve with a large enough effect; inconclusive = small, poorly fitted or top-dose-only effect; inactive = no such curve, though single readings can be large or run the other way; note: potency is the fitted concentration of half-maximal effect; the source files actives as falling curves though it sought activators and does not explain the sign; nearly all actives have a fitted effect of over 65% in size; many hits overshoot -100%
Target sequence (P80244 whole entry, looked up): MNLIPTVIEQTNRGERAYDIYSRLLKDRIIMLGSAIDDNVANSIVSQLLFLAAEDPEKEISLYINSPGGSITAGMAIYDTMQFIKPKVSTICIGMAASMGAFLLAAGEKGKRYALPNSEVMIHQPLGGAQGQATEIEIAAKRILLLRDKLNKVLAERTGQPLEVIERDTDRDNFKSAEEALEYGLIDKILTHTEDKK
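Buffer: 100 mM Tris/HCl pH8, 100 mM KCl, 0.05% low protease BSA, 2.5% glycerol, 0.01% Tween-20. ClpP 10 microg/mL final; 20 min RT; delta FRET normalized to ADEP and DMSO controls.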
gsp antag – antagonizes gsp, the McCune-Albright syndrome mutation; gsp-mutant cells, cAMP HTRF, 30 min; control for the full effect not named in the record; Potency, µM (titrated, usually from 76.9 µM), inactives show top-dose activity change, negative = inhibition, hits mostly inhibitors; actives 0.4% (n = 340,000); AID 624288; active = falling curve of any shape with a large fitted effect; inconclusive = falling curve, mostly with a smaller effect; inactive = flat or rising curve; cell line not stated here;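 note: intracellular cAMP measured with PDE inhibitor Ro 20-1724 present during compound exposure; potency is the fitted concentration of half-maximal effect; % is set by controls: 0 for no effect and ±100 for the full control effect; nearly all actives have a fitted effect of over 65% in size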
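Cells in G418 medium, seeded 16-24 h, 37C; buffer exchange to DPBS + 1 mM CaCl2, 0.5 mM MgCl2, 0.05% BSA; cpds in DMSO + […] (300 uM stock), 30 min 37C; HTRF cAMP detection.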
gsp ag – activates gsp, the McCune-Albright syndrome mutation; gsp mutant cells, cAMP HTRF, 30 min; control for the full effect not named in the record; Potency, µM (series often up to 76.9 µM), for the others: at the highest dose activation (cAMP increase), usual class: activators; actives 0.13% (n = 340,000); AID 624287; active = well fitted activation curve with a large enough effect; inconclusive = small, poorly fitted or top-dose-only effect, or another doubt; inactive = no such curve, though single readings can be large or run the other way; cell line not stated here;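 note: phosphodiesterase inhibitor Ro 20-1724 added with compounds to block cAMP breakdown; potency is the fitted concentration of half-maximal effect; nearly all actives have a fitted effect of over 60% in size; about a fifth of the inactives were tested at one dose only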
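Cells stably selected in G418 were plated at 2000/well, grown 16-24 hr, then given compounds in DMSO with the PDE inhibitor […] (300 uM solution added) for 30 min at 37C; cAMP was read by HTRF.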
An asterisk follows results filed as active; u = inconclusive; x = not tested or not shown; [ ] = dose if it differs, or a comment.

#	Compound	TRPML1 inh	Menin MLL FP FL	TRPML1 agonist	ClpP mod	gsp antag	gsp ag
1	CNC(=O)c1ccc(-n2cccn2)nc1	-11.4	-6.7	0.3	x	7.7%	13.3%[15.4 µM]
2	COc1ccc(C)cc1-n1c(N)c(C#N)c(C#N)c1-c1ccc(OC)c(OC)c1OC	9.4	0.2	0.8	-17.5%	-11.2%	-47.5%[inhibitor]
3	COc1ccc(OCC(=O)NN2Cc3ccccc3C2=N)cc1	-6.0	-1.0	0.5	-5.0%	6.6%	13.7%
4	Cc1ccc2nc(SCC(=O)Nc3ccc(C(N)=O)cc3)[nH]c2c1	5.1	1.0	0.5	x	2.0%	-12.7%[15.4 µM]
5	O=C1C2C(c3ccccc3)CC=CC2[C@H](c2ccc(C(F)(F)F)cc2)N1Cc1ccccc1 (stereo partly specified)	43.7	-0.9	0.3	-0.6%	-7.2%	13.3%
6	COc1ccc(NC(=O)C/C(C)=N/NC(=O)COc2ccc(OC)cc2)cc1	-0.8	5.0	-0.4	x	1.4%	-3.5%
7	CCOC(=O)C1(O)CSc2nc3sc(C(=O)O)c(C)c3c(=O)n21 (stereo unspecified)	5.4	2.0	-0.4	u	-10.1%	0.0%
8	NC(=O)CC(NC(=O)Cc1cccc2ccccc12)c1ccc(N2CCC(N3CCCCC3)CC2)c([N+](=O)[O-])c1 (stereo unspecified)	-5.8	0.7	-0.1	0.5%	9.3%	-12.1%
9	CNC(=O)c1nc(C)c(C2(C)CC(c3cccc([N+](=O)[O-])c3)=NO2)s1 (stereo unspecified)	11.4	0.9	-1.0	1.2%	-3.0%	17.8%
10	CCOCCCNC(=O)C1CC(=O)N(C2CCCC2)C1 (stereo unspecified)	-13.7	0.4	-0.2	2.5%	9.9%	-4.4%
11	Cc1occc1C(=O)NNC1=CC(=O)CC(C)(C)C1	3.1	-1.2	0.7	-0.4%	11.8%	28.2%
12	Cc1ccnc2nc(C(=O)Nc3ccc(N4CCOCC4)cc3)nn12	5.6	0.2	-0.4	-1.9%	-10.8%	-44.7%
13	COC(=O)c1c(Oc2nc(OC)cc(OC)n2)cccc1Oc1nc(OC)cc(OC)n1	1.7	3.7	-1.6	-0.1%	-4.1%	21.8%[15.4 µM]
14	COc1ccc(OC)c(C2NC(=S)NC3=C2N2CCC3CC2)c1 (stereo unspecified)	-11.1	-4.0	-0.3	x	1.4%	-9.1%[15.4 µM]
15	COC(=O)c1ccc(S(=O)(=O)N(C2CCCCC2)C2CCCCC2)n1C	26.1	1.0	6.6	0.3%	1.4%	18.2%
16	CCOc1ccc(N2C(=O)CC(NCCc3c[nH]c4ccccc34)C2=O)cc1 (stereo unspecified)	-7.0	-5.6	0.4	-4.1%	u	11.8%
17	CCCC1Cc2nc(Cl)c(C#N)cc2CO1 (stereo unspecified)	-6.8	-2.2	1.2	x	-5.0%	7.8%[15.4 µM]
18	O=C(CSc1nc2[nH]ncc2c(=O)n1-c1ccccc1)NCCc1ccccc1	-9.0	-14.8	0.9	0.5%	-2.3%	-73.3%[inhibitor]
19	O=c1c(C/C=C/c2ccccc2)c(O)nc2n1CCCS2	13.1	3.0	0.8	-3.8%	-18.7%	6.4%
20	Cc1nonc1C1CCCN1C(=O)c1cc(COc2cccc(C(F)(F)F)c2)on1 (stereo unspecified)	41.5	3.1	1.1	2.7%	-20.3%	20.7%
21	O=C(Nc1ccccc1[N+](=O)[O-])c1cc(S(=O)(=O)N2CCOCC2)cs1	-2.5	x	0.3	2.7%	7.1%	u
22	CC1CN(C2CC(C)(C)NC(C)(C)C2)CCC1=O (stereo unspecified)	12.7	-1.8	-0.4	-1.5%	-17.2%	-14.1%
23	O=C(CCC(=O)N1CCOc2ccccc21)NCCCc1ccccc1	8.8	-2.2	-0.2	-0.3%	0.5%	-30.8%[inhibitor]
24	Cn1c(=O)oc2cc(S(=O)(=O)N3CCCC(C(=O)NCc4ccccc4Cl)C3)ccc21 (stereo unspecified)	7.6	x	-0.2	-0.6%	x	x
25	CSCCC(NC(=O)OCc1ccccc1)C(=O)O (stereo unspecified)	7.4	0.1	0.4	-0.6%	34.2%	3.7%
26	CCOC(=O)c1c(C)c(C(=O)N2CCc3ccccc3C2)c(C)n1CC	15.5	0.4	1.9	-1.3%	12.7%	-41.1%[inhibitor]
27	CCN(CC)S(=O)(=O)c1cccc(-c2csc(C)n2)c1	-8.2	2.4	-0.2	1.5%	4.3%	15.4%
28	COC(=O)c1ccc(CNC(=O)COC(=O)/C=C/c2cc(OC)c(OC)c(OC)c2)cc1	-7.9	x	0.4	180.6%	-10.6%	13.9%
29	C=CCc1ccc(OCC(O)CO)c(OC)c1 (stereo unspecified)	-9.4	1.6	-0.2	1.3%	6.2%	-0.5%[15.4 µM]
30	Cc1ccccc1CN1CCN(C/C=C/c2ccccc2)CC1	-8.0	4.4	0.0	-0.2%	2.8%	-0.5%
31	CCOc1ccc(N2CC(C(=O)NCc3ccco3)CC2=O)cc1 (stereo unspecified)	-21.2	0.0	0.9	x	-1.6%	-2.9%
32	O=C(CSc1nc(-c2ccccc2)cc(=O)[nH]1)Nc1ccccc1	11.7	0.3	-0.6	-0.3%	2.8%	-11.1%
33	CCC(=O)Nc1sccc1C(=O)OC	-3.0	5.2	0.3	-1.4%	11.8%	u
34	CC1=NN(C(C#N)c2ccccc2)C(c2ccccc2)C1 (stereo unspecified)	-0.6	10.0	-0.4	0.2%	0.1%	1.5%
35	CS(=O)(=O)N1Cc2ccccc2CC1C(=O)Nc1ccccc1C(N)=O (stereo unspecified)	9.9	1.0	0.2	-7.9%	11.1%	-1.3%
36	CCCC1NC(=O)c2cccnc2-n2c1nc1cc(C)cc(C)c1c2=O (stereo unspecified)	-17.2	x	0.3	-3.2%	x	-13.3%
37	COc1ccc(CC(=O)N/N=C(\C)c2cccs2)cc1	-1.1	-0.2	-0.4	x	7.2%	-21.1%
38	Cc1cc(C)c(C(=O)OCCNC(=O)c2cccnc2)cc1C	3.3	-2.1	3.5	-0.3%	-4.1%	-22.2%
39	O=C(OCC(=O)N1CCN(C(=O)c2ccco2)CC1)c1ccc(Cl)cc1	5.2	x	-0.7	0.9%	-0.4%	-1.4%
40	Nc1c(C(=O)NCCN2CCOCC2)c2nc3ccccc3nc2n1-c1ccc2c(c1)OCO2	-5.2	0.5	-0.5	-14.0%	-16.9%	-26.4%
41	CCC(C)(C)n1nnnc1C(c1ccc2ncccc2c1)N1CCN(c2nc3ccccc3s2)CC1 (stereo unspecified)	9.0	-0.2	1.6	-3.6%	-13.6%	-29.8%
42	CC(=O)c1ccc(NC(=O)CSc2nc(-c3ccc(C)cc3)nc3c2c(=O)n(C)c(=O)n3C)cc1	11.5	x	0.4	-0.2%	x	x
43	O=C(COC(=O)c1ccccc1F)Nc1ccc2c(c1)OCCO2	-8.1	x	0.9	x	7.9%	-10.6%[15.4 µM]
44	CC(C(=O)NCc1ccc(Cl)cc1)n1cccc1C(=O)c1ccccc1 (stereo unspecified)	-12.6	-0.3	3.6	-4.6%	-9.8%	2.4%
45	CC(C)C(c1nnnn1Cc1ccccc1)N1CCN(Cc2ccco2)CC1 (stereo unspecified)	-9.6	-1.2	-0.4	-1.0%	0.4%	-48.6%[inhibitor]
46	NS(=O)(=O)c1ccc(CCNC(=O)c2ccc(-c3ccccc3)cc2)cc1	1.8	0.7	-0.4	0.4%	3.8%	17.5%[15.4 µM]
47	CCC1CCC2(CC1)NC(=O)N(CC(=O)NCc1ccccc1Cl)C2=O (stereo unspecified)	-11.3	x	0.5	-1.2%	-0.7%	3.0%[15.4 µM]
48	CCC(C(=O)O)n1c(C(F)(F)F)nc2ccccc21 (stereo unspecified)	-5.1	1.5	-0.4	0.5%	-9.6%	-15.2%
49	Cc1ccc2c(c1)C1CN(C)CCC1N2C(=O)COc1ccccc1F (stereo unspecified)	-7.7	4.5	-0.5	x	6.5%	-1.9%
50	NC(=O)c1ccc(-n2nnnc2SCC(=O)Nc2ccc(N3CCOCC3)c(Cl)c2)cc1	0.7	1.4	-1.0	0.2%	7.8%	2.9%
51	Cc1ccccc1OCC(O)CN(CCO)Cc1ccccc1 (stereo unspecified)	16.7	-3.5	-0.5	x	-0.1%	-16.5%[15.4 µM]
52	CC1Sc2ccc(C(=O)OCc3ccccc3Cl)cc2NC1=O (stereo unspecified)	-8.6	x	1.8	2.3%	-10.1%	-11.4%[15.4 µM]
53	Cc1ccc(C)c(NC(=O)COC(=O)c2ccc3c(c2)OCCO3)c1	1.6	x	-0.8	-0.2%	7.3%	12.5%
54	CN(C)C(=O)CSc1nnc(Cc2ccc([N+](=O)[O-])cc2)o1	-6.5	-0.3	0.1	0.9%	-13.6%	-34.5%[inhibitor]
55	CCCc1cc(=O)oc2c(C)c(OCC(=O)NC3CCN(Cc4ccccc4)CC3)ccc12	-2.8	x	0.2	-8.9%	-4.1%	u
56	CCOCc1cn(CC(=O)c2ccc(Cl)cc2)c(C)nc1=N	-6.1	4.1	-0.9	-16.6%	8.6%	-5.7%
57	CN(C)/C=N/c1c(C#N)cnn1-c1ccc(C(F)(F)F)cn1	-7.0	2.2	-0.7	0.7%	8.0%	2.0%
58	Nn1c(-c2cccc(Br)c2)n[nH]c1=S	-8.2	4.3	0.1	-6.9%	0.5%	u
59	CCOC(=O)C(N)CSC1CC(=O)N(c2ccc(C(=O)OC)cc2)C1=O (stereo unspecified)	1.2	0.6	0.0	0.7%	-9.9%	3.8%
60	CN(C)C(CNC(=O)c1cccc(S(=O)(=O)N2CCN(c3ccc(F)cc3)CC2)c1)c1ccccc1 (stereo unspecified)	27.4	x	1.7	x	-9.2%	-1.3%[15.4 µM]

New compounds follow:
#	Compound	TRPML1 inh	Menin MLL FP FL	TRPML1 agonist	ClpP mod	gsp antag	gsp ag
61	CCn1ccnc1CNC(=O)c1ccc2oc(CCCc3ccccc3)nc2c1	-12.2	x	0.0	0.8%	0.0%	u
62	CCOC(=O)C(C)Oc1cccc2c(=O)n(CC(=O)NCc3ccco3)ccc12 (stereo unspecified)	0.9	-2.4	0.1	-20.5%	10.8%	u
63	O=C(COc1ccc(S(=O)(=O)N2CCCCC2)cc1)N1CCOCC1	-11.8	x	-0.2	-1.0%	6.1%	3.3%
64	COc1ccccc1N1CCN(c2ccc(-c3ccccc3)nn2)CC1	-3.3	u	-0.4	2.1%	4.0%	-24.5%
65	CC(=O)Nc1cccc(NC(=O)Nc2cccc(Cl)c2C)c1	-6.2	-0.5	0.2	x	0.1%	-6.0%
66	Cc1ccc(OCc2cc(C(=O)N3CCC(Oc4cccnc4)CC3)no2)cc1C	-11.8	-2.7	3.0	1.4%	6.7%	8.3%
67	O=[N+]([O-])c1cccc(-c2nc3ccc([N+](=O)[O-])cc3[nH]2)c1	-12.7	-4.6	0.0	0.9%	-25.2%	u
